# Screening data: PubChem BioAssay, several laboratories
# ugtP null kill: kills S. aureus RN4220 lacking UgtP. S. aureus RN4220 ugtP deletion, OD600 growth, 16 h; some inactives read as strong as hits. growth inhibition, % (test concentration not listed). hit rate 0.54% among 330,000. AID 1259309;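 active = z-score under -3 and OD600 up to 0.15 on both plates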;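 also: plate controls were untreated wells for no effect and antibiotic for full effect; wells of about 80 µL received 100 nL stock; the first replicate is given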
# Mtb hypoxia rep: inhibitors of hypoxia-regulated fluorescent reporter in Mycobacterium tuberculosis | fluorescence inhibition, % (test concentration not listed) | hit rate 0.1% among 300,000 | M. tuberculosis hypoxia-regulated fluorescent reporter, fluorescence;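 active = 35 to 45% if threefold the growth effect, above 45% if 1.5-fold the growth effect; inactive = the rest, general growth blockers included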;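 also: wells of about 50 µL received 100 nL stock; 0% = vehicle wells and 100% = reference inhibitor wells; whole bacteria with a GFP reporter of the hypoxia response; strong numbers were not always called active; many hits fall short of the cut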
# RN4220 kill: S. aureus RN4220 growth inhibition; OD600, 16 h; inhibition, % (concentration not given with the values); hit rate 0.33% among 330,000;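 active = z-score of -3 or lower and OD600 up to 0.18 on both plates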;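 also: plate controls were untreated cells for no effect and reference antibiotic for full effect; stock transfer was 100 nL into about 80 µL; one replicate is shown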
# BJeLR viability: BJeLR cell viability loss | inhibition, % (concentration not given with the values) | BJeLR (HRASV12) viability, CellTiter-Glo ATP luminescence, 48 h; reference of the scale not given here | hit rate 0.17% among 300,000;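 active = replicate mean above 50%; inconclusive = above 50% but judged a plate artefact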;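 also: 50 nL library stock added to about 25 µL; numbers are from one replicate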
# PrP 5UTR inh: inhibition of PrP 5' UTR reporter expression; cell-based PrP 5' UTR mRNA reporter, plate reader; inhibition, % (concentration not given with the values); hit rate 0.35% among 340,000; AID 488862;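 active = every replicate at 50% or more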;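 also: 0 = median of the neutral control wells; tested in H4 reporter cells; numbers are from one replicate; inactives centre near -14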
# Bead autofluor: counter-screen for toxin protease inhibitors: compound fluorescence; compound autofluorescence counterscreen, microsphere flow cytometry; hits give high values; fluorescence intensity (concentration not given with the values); hit rate 3.1% among 360,000;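 active = at least 3 SD above the mean of all compounds, about 16000 in these data; inconclusive = too few beads counted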;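 also: 100 nL of 1 mM stock went into each well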
# Mtb hypoxia rep growth: second read-out of Mtb hypoxia rep, no call of its own (marks repeat the call); growth inhibition, %; measured here: M. tuberculosis growth (absorbance);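 0% = vehicle and 100% = reference antibiotic; read after six days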
# * marks the source's active call; other numbers are inactive results; ? = inconclusive; · = not tested or not shown.
SMILES	ugtP null kill	Mtb hypoxia rep	Mtb hypoxia rep growth	RN4220 kill	BJeLR viability	PrP 5UTR inh	Bead autofluor
O=C(NN=Cc1ccc(N2CCOCC2)o1)c1cccc(C(F)(F)F)c1	-1	8	9	1.5	·	·	·
Cc1ccc2occ(C=NNC(=O)c3ccc(O)cc3)c(=O)c2c1	5	5	-2	-0.9	·	·	·
O=C1CS/C(=N/N=Cc2cccs2)N1	1	3	2	-0.3	·	·	·
Cn1nccc1C(=O)NC1CCCc2c1cnn2-c1ccc(F)cc1F (configuration not stated)	·	·	·	·	1	-7	6319
COc1ccc(C(=O)N2CCN(C(=O)C3CCCO3)CC2)cc1[N+](=O)[O-] (configuration not stated)	0	5	9	3.7	·	-9	3839
CNC(=S)NN=Cc1c(Cl)cccc1Cl	0	3	5	0.5	·	·	·
Cc1cc(Br)c(NC(=O)COC(=O)CC2CC3CCC2C3)c(Br)c1 (configuration not stated)	12	1	-2	9.5	·	-32	4026
CC(C)CC1CC(C)(c2csc(NNC(=O)c3ccccc3)n2)OC1=O (configuration not stated)	8	3	16	-0.3	5	24	4551
Cc1cc(C(=O)CSc2nnc(-c3ccccc3)n2C)c(C)n1C	1	4	6	4.1	0	-13	22200*
CCOc1ccc(C(=O)NC(=S)Nc2cccnc2)cc1[N+](=O)[O-]	·	·	·	·	-3	-9	2314
CN(c1ccccc1)S(=O)(=O)c1ccc(C(=O)NCCc2ccccc2)cc1	·	·	·	·	-7	-29	5445
NC(CC(=O)O)c1ccc(F)cc1 (configuration not stated)	1	12	9	0.4	1	-1	2456
Cc1cc(C)c2c(n1)nn1c(NCCN3CCOCC3)cc(C)nc21	-3	18	7	0.9	-5	0	23370*
Cc1cc(Nc2cnc3ccccc3n2)n(-c2ccccc2)n1	13	7	4	0.0	8	-41	17464*
COC1CCC2(C)C(=CCC3C4CC(O)CC4(C)CCC32)C1 (configuration not stated)	5	9	7	-5.9	·	-13	3436
COc1ccc(Cn2cc(F)c(=O)n(C)c2=O)cc1[N+](=O)[O-]	1	7	-6	3.8	-13	-8	4332
N#Cc1c(C(F)(F)F)cc(-c2ccco2)nc1SCc1ccccn1	18	4	7	-0.7	15	-11	10163
O=C(Nc1ccc2nsnc2c1)c1cccs1	-6	8	4	15	1	-29	4524
O=C1CN(c2ccc(F)cc2)C(=S)N1c1ccccc1	2	16	8	3.8	1	-11	3929
COc1ccc(OC)c(Nc2nc(-c3ccncc3)nc3ccccc23)c1	0	-6	6	1.0	7	·	3592
O=C(CSc1nnc2ccccn12)NNC(=O)c1ccc(F)cc1	1	-6	13	3.0	-9	-17	4493
O=C(N/N=C/c1ccncc1)c1nn(Cc2ccccc2)c(=O)c2ccccc12	·	·	·	·	1	-38	4606
Cc1ccc(-n2[nH]c(C)c(C=NC34CN5CN(CN(C5)C3)C4)c2=O)cc1C	7	·	·	1.2	18	-30	2381
CCOc1ccc(-c2cc(C(=O)NCC3CCCO3)c3ccccc3n2)cc1 (configuration not stated)	3	8	2	0.1	6	-28	2619
CCOC(=O)c1ccc(NC(=O)CSc2nnc(CNC(=O)c3ccccc3F)o2)cc1	-8	·	·	-1.4	-1	-20	4138
S=C(NCc1ccccc1)NN=Cc1cccs1	18	7	-6	-4.9	·	·	·
Cc1nn(C)c(C)c1CCC(=O)N1CCCC(Nc2ccc(C(C)C)cc2)C1 (configuration not stated)	-3	4	-2	5.5	1	-14	5719
CCC(C)(C(=O)NC1CCCC1)N(Cc1cccs1)C(=O)Cc1cccs1 (configuration not stated)	6	·	·	0.1	0	-12	3137
O=C(CN1C(=O)NC2(CCCCC2)C1=O)Nc1ccc2[nH]c(=O)[nH]c2c1	2	2	-4	1.6	·	-34	7585
Cc1ccc(C)c(S(=O)(=O)N2CCN(Cc3ccc(O)c4ncccc34)CC2)c1	-4	3	7	10	16	27	4027
COc1ccc(CNCc2cc3c(C(C)(C)C)nn(-c4ccccc4)c3[nH]c2=O)cc1	1	-8	-2	1.9	-4	-5	11725
O=S(=O)(NCc1cn2ccsc2n1)c1ccc2c(c1)OCCO2	-7	6	10	3.1	0	-13	2370
O=C(Nc1cccc(Cl)c1)c1ccc2ncsc2c1	-7	-5	-8	1.9	-3	-57	4054
O=C(c1cc(=O)[nH]c2ccccc12)N(Cc1nnc(-c2ccccc2Cl)o1)C1CC1	5	-4	2	1.8	2	-21	·
Cc1csc(SCC(=O)N2CCN(S(=O)(=O)c3ccccc3)CC2)n1	-2	-70	-8	5.7	2	-26	4080
O=S(=O)(Cc1cnc(Cl)s1)c1ccccc1	-5	1	8	-11	0	-26	2907
N#Cc1ccc(OCC(=O)N/N=C2\CCc3ccccc32)cc1	·	·	·	·	-5	-12	3177
NS(=O)(=O)c1ccc(NC(=S)Nc2ccc(S(=O)(=O)N3CCCC3)cc2)cc1	2	1	4	5.9	0	-16	2081
O=C(Nc1ccccc1N1CCCCC1)c1ccc(F)c(S(=O)(=O)N2CCOCC2)c1	16	6	7	0.5	4	-6	?

# 19 neighbouring records already listed, for reference:
SMILES	ugtP null kill	Mtb hypoxia rep	Mtb hypoxia rep growth	RN4220 kill	BJeLR viability	PrP 5UTR inh	Bead autofluor
Cc1cc(Nc2cnc3ccccc3n2)n(-c2ccccc2)n1	13	7	4	0.0	8	-41	17464*
COC1CCC2(C)C(=CCC3C4CC(O)CC4(C)CCC32)C1 (configuration not stated)	5	9	7	-5.9	·	-13	3436
COc1ccc(Cn2cc(F)c(=O)n(C)c2=O)cc1[N+](=O)[O-]	1	7	-6	3.8	-13	-8	4332
N#Cc1c(C(F)(F)F)cc(-c2ccco2)nc1SCc1ccccn1	18	4	7	-0.7	15	-11	10163
O=C(Nc1ccc2nsnc2c1)c1cccs1	-6	8	4	15	1	-29	4524
O=C1CN(c2ccc(F)cc2)C(=S)N1c1ccccc1	2	16	8	3.8	1	-11	3929
COc1ccc(OC)c(Nc2nc(-c3ccncc3)nc3ccccc23)c1	0	-6	6	1.0	7	·	3592
O=C(CSc1nnc2ccccn12)NNC(=O)c1ccc(F)cc1	1	-6	13	3.0	-9	-17	4493
O=C(N/N=C/c1ccncc1)c1nn(Cc2ccccc2)c(=O)c2ccccc12	·	·	·	·	1	-38	4606
Cc1ccc(-n2[nH]c(C)c(C=NC34CN5CN(CN(C5)C3)C4)c2=O)cc1C	7	·	·	1.2	18	-30	2381
CCOc1ccc(-c2cc(C(=O)NCC3CCCO3)c3ccccc3n2)cc1 (configuration not stated)	3	8	2	0.1	6	-28	2619
CCOC(=O)c1ccc(NC(=O)CSc2nnc(CNC(=O)c3ccccc3F)o2)cc1	-8	·	·	-1.4	-1	-20	4138
S=C(NCc1ccccc1)NN=Cc1cccs1	18	7	-6	-4.9	·	·	·
Cc1nn(C)c(C)c1CCC(=O)N1CCCC(Nc2ccc(C(C)C)cc2)C1 (configuration not stated)	-3	4	-2	5.5	1	-14	5719
CCC(C)(C(=O)NC1CCCC1)N(Cc1cccs1)C(=O)Cc1cccs1 (configuration not stated)	6	·	·	0.1	0	-12	3137
O=C(CN1C(=O)NC2(CCCCC2)C1=O)Nc1ccc2[nH]c(=O)[nH]c2c1	2	2	-4	1.6	·	-34	7585
Cc1ccc(C)c(S(=O)(=O)N2CCN(Cc3ccc(O)c4ncccc34)CC2)c1	-4	3	7	10	16	27	4027
COc1ccc(CNCc2cc3c(C(C)(C)C)nn(-c4ccccc4)c3[nH]c2=O)cc1	1	-8	-2	1.9	-4	-5	11725
O=S(=O)(NCc1cn2ccsc2n1)c1ccc2c(c1)OCCO2	-7	6	10	3.1	0	-13	2370

# Profiles as entered above. Order of values: ugtP null kill | Mtb hypoxia rep | Mtb hypoxia rep growth | RN4220 kill | BJeLR viability | PrP 5UTR inh | Bead autofluor
# O=S(=O)(NCc1cn2ccsc2n1)c1ccc2c(c1)OCCO2 is listed with -7 | 6 | 10 | 3.1 | 0 | -13 | 2370
# O=C(Nc1ccccc1N1CCCCC1)c1ccc(F)c(S(=O)(=O)N2CCOCC2)c1 is listed with 16 | 6 | 7 | 0.5 | 4 | -6 | ?
